Bioassay records deposited in PubChem by several laboratories.
Yeast UUG start = yeast start codon fidelity modulation; activity score, % at 18.7 µM; actives 0.13% (n = 350,000); S. cerevisiae UUG-firefly luciferase reporter, luminescence/redox ratio;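 active means replicate mean at a twofold rise or more, about +100% in these data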;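 further: firefly luciferase made from a UUG start codon reports start codon fidelity; reporter light over untreated wells divided by growth signal over untreated wells; some hits fall short of that in this replicate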
PABP polyA inh = blocks human PABP binding to poly(A) RNA. actives 1% (n = 290,000). inhibition, % at 35 µM. AID 2014. fluorescence polarization;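 active means 50% or more with normal probe brightness, or confirmed in later tests; inconclusive means above 50% with abnormal brightness, or retests that disagree; inactive means below 50% or failed in later tests; about a fifth of its hits are not listed in these tables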;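 further: calls also rest on retests at 20 µM and on dose response follow-up; controls were probe without protein and protein plus probe with vehicle; some compounds called inactive have numbers as strong as hits; many hits fall short of the cut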
Target sequence (P11940 whole entry, looked up): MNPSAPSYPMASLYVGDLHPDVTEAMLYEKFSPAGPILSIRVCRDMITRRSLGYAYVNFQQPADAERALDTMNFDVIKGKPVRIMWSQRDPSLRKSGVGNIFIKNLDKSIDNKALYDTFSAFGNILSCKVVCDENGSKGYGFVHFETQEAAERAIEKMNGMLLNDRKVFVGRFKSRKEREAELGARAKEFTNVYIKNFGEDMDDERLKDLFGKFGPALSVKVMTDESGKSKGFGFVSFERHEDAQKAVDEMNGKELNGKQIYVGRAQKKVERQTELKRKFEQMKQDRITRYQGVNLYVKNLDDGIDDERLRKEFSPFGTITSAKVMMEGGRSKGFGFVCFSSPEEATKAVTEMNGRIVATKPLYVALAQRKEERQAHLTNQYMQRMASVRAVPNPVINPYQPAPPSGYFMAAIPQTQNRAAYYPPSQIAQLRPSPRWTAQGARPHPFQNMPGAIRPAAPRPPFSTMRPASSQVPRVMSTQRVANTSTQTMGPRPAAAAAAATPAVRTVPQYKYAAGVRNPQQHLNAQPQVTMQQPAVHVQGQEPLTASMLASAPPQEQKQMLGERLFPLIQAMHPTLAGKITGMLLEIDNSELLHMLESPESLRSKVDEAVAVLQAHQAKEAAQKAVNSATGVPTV
MT1-MMP act inh = blocks activation of human MT1-MMP; P50281; GFP/RFP ratio change, % at 20 µM; HT1080 RFP-PRO-GFP cells, GFP/RFP ratio fluorescence, overnight; percent of plate control window, DMSO zero; actives 0.061% (n = 360,000);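 active means GFP/RFP ratio change of at least 30% with cell ATP level not reduced by more than half and red fluorescence within 50% of control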; further: strong numbers were not always called active
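system = RFP-PRO-GFP reporter HT1080 cells | dosing = 20 µM single dose, 1% DMSO | timing = overnight cell settling, then overnight compound exposure, 37 °C, 5% CO2 | read-out basis = GFP/RFP fluorescence ratio | controls = DMSO and RFP-L50D-GFP cell wells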
CSC inhib = blocks cancer stem cells | inhibition, % at 7.5 µM | cancer stem cell-like cells viability, luminescence | actives 1.1% (n = 300,000);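 active means mean at 75% or more and at least half the replicates too; inconclusive means mean and replicates disagree; tested in HMLE shEcad cells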;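 further: 0% = median of negative and 100% = median of positive control wells; the first replicate is given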
Rce1 inh = yeast Ras-converting enzyme inhibition; Q03530; yeast membranes, quenched prenylated peptide cleavage fluorescence; calls only; actives 0.27% (n = 290,000);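 active means fall in fluorescence gain of 50% or more versus controls, with final raw signal at or below 3038400; inconclusive means same 50% fall but final raw signal above 3038400; inactive means fall in fluorescence gain under 50%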;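 further: plate controls were neutral control wells for no effect and wells lacking membranes for full effect; tested at 10 µM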
HIV Env fusion = inhibitors of HIV Env-mediated cell fusion. HeLa-JRFL Env/CEM21 cell fusion, luciferase. inhibition, % at 12.3 µM. actives 1.1% (n = 360,000). AID 651610;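 active means mean replicate inhibition score of at least 50 and every replicate individually at or above 50; inconclusive means only one of the two criteria met; inactive means mean below 50 and not all replicates reaching 50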;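 further: 0% = plate neutral controls and 100% = maraviroc near 300 nM; one replicate is shown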
eIF4H inh = inhibitors of RNA binding by human eIF4H | eIF4H fluorescence polarization binding assay | inhibition, % at 35 µM | actives 0.94% (n = 290,000) | AID 2012 | Q15056;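 active means 50% or more with normal probe brightness, or confirmed in later tests; inconclusive means above 50% with abnormal brightness, or retests that disagree; inactive means below 50% or failed in later tests; about a fifth of its hits are not listed in these tables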;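 further: calls also rest on retests at 20 µM and on dose response follow-up; 0% = protein and probe with vehicle and 100% = probe without protein; strong numbers were not always called active; many hits fall short of the cut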
eIF4H inh retest = further read-out of eIF4H inh, marked with its call; inhibition, %; compound at 20 µM; confirmation average;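 mean of two retest wells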
PABP polyA inh retest = also measured in PABP polyA inh; calls as there; inhibition, %; compound at 20 µM; confirmation repeats;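 mean of two retest wells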
MT1-MMP act inh RFP = second read-out of MT1-MMP act inh, no call of its own (marks repeat the call); RFP signal change, %; measured here: RFP expression control read;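 0 = vehicle wells; hits needed this value within 50% of zero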
An asterisk follows results filed as active; i = inactive; ? = inconclusive; nt = not tested or not shown.

SMILES | Yeast UUG start | PABP polyA inh | MT1-MMP act inh | MT1-MMP act inh RFP | CSC inhib | Rce1 inh | HIV Env fusion | eIF4H inh | others
COc1ccc(S(=O)(=O)NCC(=O)N(Cc2ccco2)C(C(=O)NC(C)(C)C)C(C)C)cc1 (stereo not given) | 3 | -3 | 1 | 3 | nt | i | 18 | 7
CCN(CC)S(=O)(=O)c1ccc(Cl)c(NC(=O)c2cc(Cl)ccc2Cl)c1 | -14 | -12 | 4 | 1 | -6 | i | -45 | -7
Cc1[nH]c2ccccc2c1C(=O)COC(=O)c1cccc(S(=O)(=O)N2CCCCC2)c1 | -16 | -8 | -7 | -8 | 9 | i | 23 | -14
CCOc1ccc(NC(=O)CNC(=O)Cc2ccccc2)cc1 | -9 | 8 | 4 | 2 | nt | i | -10 | -1
CCCn1ncc(C(=O)NC2CCCN(Cc3ccc(Cl)cc3)C2)c1C (stereo not given) | -5 | 6 | 0 | 1 | -3 | i | 0 | -5
O=c1c2ccccc2nnn1Cc1ccccc1Cl | -1 | -7 | 4 | 5 | 15 | i | 5 | -2
O/N=C/c1ccc2ccccc2c1 | -5 | 4 | -1 | 0 | -6 | i | 4 | 3
CCn1c(-c2ccccc2)csc1=Nc1ccc(S(=O)(=O)O)cc1 | nt | 63 | 3 | 5 | 7 | i | 34 | -8 | eIF4H inh retest=13;PABP polyA inh retest=20
COc1ccc(S(=O)(=O)CCC(=O)Nc2c(C)n(C)n(-c3ccccc3)c2=O)cc1 | -16 | -16 | 2 | -1 | 4 | nt | nt | -9
C=CCNC(=O)CSc1nc2ccccc2c(=O)n1CCc1ccc(OC)c(OC)c1 | -10 | 12 | -3 | 1 | -9 | i | 22 | -7
C=CCC[C@@H](Cc1ccc(F)cc1)C(=O)OC[C@@H](C)NC(=O)[C@H](CC=C)CC(=O)N(CCO)Cc1ccccc1 | -8 | nt | 1 | -12 | -2 | nt | -7 | nt
CCC(c1nnc(SCc2nc3ccccc3s2)n1Cc1ccccc1)N(C)C (stereo not given) | -14 | 3 | -21 | -4 | -8 | i | nt | -5
N/C(=N\OC(=O)CCC1CCCCC1)c1ccccn1 | -69 | -3 | 5 | 7 | -5 | i | -161 | -2
CCOC(=O)c1cnc2c(-c3ccc(F)cc3)cnn2c1C(F)(F)F | nt | 4 | 4 | -1 | nt | nt | nt | -8
COc1ccc(CCNC(=O)C2CCN(Cc3nc(-c4ccccc4C)oc3C)CC2)cc1OC | 4 | -7 | -5 | -4 | 10 | i | 57* | -1
O=C(Nc1ccc(S(=O)(=O)N2CCOCC2)cc1)c1ccc(Cl)cc1Cl | -5 | -4 | 7 | -3 | -10 | i | 27 | -3
CC(=O)c1ccc(N2CCCCC2)c(F)c1 | nt | -10 | 6 | 6 | -11 | i | 3 | -7
CCC(CC)C(=O)Nc1cccc(C(=O)NC(C)(C)C)c1 | -15 | 2 | 1 | 2 | -7 | i | -1 | 8
CN(C)S(=O)(=O)c1cccc(NC(=O)c2ccc(OC(F)(F)F)cc2)c1 | 1 | -9 | -8 | -20 | -5 | i | 25 | 5
CCNC(=O)c1cc(Cl)ccc1OC | nt | -6 | 0 | 3 | -4 | i | -13 | 1
O=C(COC(=O)C1COc2ccccc2O1)NC1CCCCC1 (stereo not given) | -13 | nt | -1 | 5 | -15 | nt | 9 | nt
CCOc1ccc2nc(N(CCN(C)C)C(=O)c3ccc4ccccc4c3)sc2c1 | -20 | -1 | -3 | 1 | 13 | i | 6 | -12
Cc1ccc2[nH]c(=O)c(CN(Cc3ccco3)C(=O)N3CCOCC3)cc2c1 | nt | -2 | 1 | -4 | -15 | i | ? | -7
S=C(Nc1ccc(Br)cc1)N1CCn2cccc2C1c1cccnc1 (stereo not given) | nt | -13 | 2 | 3 | nt | i | 4 | -6
FC(F)(F)c1ccccc1-n1c(-c2cnccn2)n[nH]c1=S | nt | 1 | -1 | 1 | -13 | i | -11 | -9
O=C(Nc1ccc(F)c([N+](=O)[O-])c1)C(=O)c1c(O)[nH]c2ccccc12 | nt | -6 | -4 | 1 | -8 | i | 5 | -1
CC(C)c1ccc(/C=C(/C#N)c2nnc(NC(=O)c3ccccc3)s2)cc1 | nt | 4 | -10 | -2 | 29 | i | -14 | -4
COc1ccc(N2C(=O)CC(NNc3nc4ccccc4s3)C2=O)cc1 (stereo not given) | -7 | -3 | 0 | 0 | -6 | i | 4 | -8
O=C(OCC(=O)N1CCCc2ccccc21)c1ccccc1OC(F)F | -6 | nt | 2 | 2 | -9 | nt | 27 | nt
O=C(CN(Cc1ccco1)C(=O)Cn1nnc(-c2ccc(F)cc2)n1)NC1CCCC1 | -15 | -5 | 9 | -1 | -15 | i | 32 | -6

The last three compounds of the section above come first, to join the parts:
SMILES | Yeast UUG start | PABP polyA inh | MT1-MMP act inh | MT1-MMP act inh RFP | CSC inhib | Rce1 inh | HIV Env fusion | eIF4H inh | others
COc1ccc(N2C(=O)CC(NNc3nc4ccccc4s3)C2=O)cc1 (stereo not given) | -7 | -3 | 0 | 0 | -6 | i | 4 | -8
O=C(OCC(=O)N1CCCc2ccccc21)c1ccccc1OC(F)F | -6 | nt | 2 | 2 | -9 | nt | 27 | nt
O=C(CN(Cc1ccco1)C(=O)Cn1nnc(-c2ccc(F)cc2)n1)NC1CCCC1 | -15 | -5 | 9 | -1 | -15 | i | 32 | -6
Cc1cc(C)c2c(N)c(C(=O)N3CCc4ccccc4C3)sc2n1 | 9 | 4 | 2 | 3 | -2 | i | 11 | 4
CCc1ccccc1NC(=O)CCS(=O)(=O)c1ccc(Br)cc1 | -14 | 8 | 1 | 3 | -5 | i | 13 | 33
c1ccc2oc(NC3=NCN(C4CCCCC4)CN3)nc2c1 | -10 | -2 | 2 | -1 | -8 | i | -45 | -3
COc1ccc(CN2C(=O)c3cccnc3C2=O)cc1S(=O)(=O)N(C)c1ccc(C)cc1 | -4 | 2 | 2 | 3 | -7 | i | -4 | -13
CC1CCc2nc(NC(=O)CN3CCN(c4ccccc4)CC3)sc2C1 (stereo not given) | -11 | -10 | 3 | 0 | -3 | i | nt | -4
Nc1nc(NCC2CCCO2)nc(Nc2ccccc2F)c1[N+](=O)[O-] (stereo not given) | -5 | 8 | 1 | -3 | nt | i | -4 | -5
Cc1cc(C)c(NC(=O)c2cn3c4c(c(N5CCN(C)CC5)c(F)cc4c2=O)OCC3C)c(C)c1 (stereo not given) | 8 | 10 | 4 | 3 | 19 | i | nt | -5
Cc1cc2c(cc1S(=O)(=O)N1CCN(c3cccc(C(F)(F)F)c3)CC1)OCC(=O)N2 | -16 | 7 | 0 | -8 | nt | i | 3 | 5
Cn1c(=O)n(Cc2ccc(Cl)cc2)c2ccccc21 | -15 | -9 | 2 | -3 | nt | i | nt | -14
COc1cccc(CN2CCN(C(=O)C3CCC(=O)N(C4CCCC4)C3)CC2)c1 (stereo not given) | -1 | -3 | -5 | -3 | 9 | i | 2 | -16
CC(=O)NS(=O)(=O)c1ccc(NC(=O)COc2cccc3c2OC(C)(C)C3)cc1 | -1 | nt | 4 | 2 | -10 | i | -8 | nt
COc1cccc(C(=O)NC(=O)Nc2cc(C)[nH]n2)c1 | nt | -6 | -4 | -3 | nt | i | -25 | -3
CCOc1ccc(NC(=O)COc2ccc(C(=O)NCc3cccnc3)cc2OC)cc1 | nt | nt | 4 | 1 | -13 | i | -55 | nt
O=C1C2C3C=CC(C4CC34)C2C(=O)N1Cc1ccccc1 (stereo not given) | nt | 2 | 1 | 4 | nt | i | 20 | -3
CC1(C(=O)NS(=O)(=O)c2cccc(F)c2)CCN1C(=O)c1ccccc1CCc1ccccc1 (stereo not given) | -3 | nt | 3 | 4 | nt | nt | 7 | nt
COc1cccc(C2CC(=O)Nc3cc(C)c(C)cc32)c1 (stereo not given) | -3 | nt | 3 | -12 | nt | nt | 13 | nt
COc1ccc(CCNC(=O)CCN2C(=O)[C@@H]3Cc4ccccc4CN3C2=O)cc1OC | -5 | 10 | 5 | 1 | -4 | i | 17 | -10
CCn1c(CC(=O)Nc2ccc(C)cc2)nnc1SCC(=O)N1CCN(c2ccccc2)CC1 | -5 | -5 | 6 | 4 | nt | i | -17 | -5
COCC(=O)N(C)c1nnc(-c2cnccn2)s1 | -25 | -7 | 2 | -1 | -10 | i | -49 | -12
Cc1ccc(C)c(NC(=S)NCC(c2ccccc2)N(C)C)c1 (stereo not given) | -19 | 2 | 4 | 2 | 5 | i | 11 | 2
COc1cccc(CN(C(=O)c2cc3ccccc3oc2=O)C2CCS(=O)(=O)C2)c1 (stereo not given) | -7 | -2 | nt | nt | 4 | i | -12 | 4
CCOC(=O)Cc1csc(Nc2ccc(Cl)cc2)n1 | nt | -8 | -4 | 0 | -10 | i | 24 | -7
CCOc1ccc(NC(=O)CN(C)C(=O)C(C)N2C(=O)c3ccccc3C2=O)cc1OCC (stereo not given) | -1 | nt | 1 | 1 | nt | nt | -36 | nt
O=C(c1ccco1)N1CCN(CCCCN2C(=O)c3ccccc3C2=O)CC1 | 1 | 7 | -1 | 2 | -1 | i | nt | 12
COc1ccc(CC(=O)n2nc(-c3ccccc3)nc2NCc2ccco2)cc1 | -13 | -2 | 4 | 5 | -10 | i | -66 | -11
Cc1cc2nc(C3CCCN(C(=O)NCc4ccccc4)C3)[nH]c2cc1C (stereo not given) | -13 | 14 | -4 | 2 | -12 | i | -134 | -12
C=CCn1c(SCc2c(C)noc2C)nnc1C1COc2ccccc2O1 (stereo not given) | -18 | -5 | 8 | -3 | 14 | i | -51 | -4
CN=c1scc(-c2ccccc2Br)n1/N=C/c1ccc[nH]1 | nt | 0 | nt | nt | 31 | i | nt | -5
CN(C)c1ccc(S(=O)(=O)NCC(=O)NCCOc2ccccc2F)cc1[N+](=O)[O-] | -17 | nt | 7 | 8 | 0 | i | 3 | nt
C#CCNC(=O)C1=C[C@H](C2CCCCC2)C[C@H](OCc2ccc(CO)cc2)O1 | -8 | -8 | 4 | 3 | 2 | i | 12 | -2
CCOc1ccc(C(=O)CC(NCc2cccs2)C(=O)O)cc1 (stereo not given) | -12 | -20 | 0 | 1 | -10 | i | ? | -5
Cc1ccc(C)c(C(=O)CSc2n[nH]c(C(C)C)n2)c1 | -17 | -7 | 0 | 0 | 4 | i | -4 | -15
Cc1cc(C)nc(NS(=O)(=O)c2ccc(NC(=S)NC(=O)C(C)C)cc2)n1 | -10 | 28 | -8 | -2 | -25 | i | nt | -5
Cc1cc(OCC(=O)N(Cc2ccco2)c2c(N)n(Cc3ccccc3)c(=O)[nH]c2=O)ccc1Cl | -14 | nt | 0 | -3 | nt | nt | 13 | nt
COc1ccc(N(C)C(=O)Cc2c(C(=O)O)n(C)c3ccccc23)cc1 | 9 | 9 | 3 | 6 | 0 | i | -2 | -5
O=c1[nH]c(Cn2nnc(-c3ccccc3)n2)nc2scc(-c3ccccc3)c12 | -3 | 5 | 6 | -2 | 14 | nt | nt | -7
CC(NCc1ccccc1Cl)C(=O)Nc1ccc(S(=O)(=O)N2CCCC2)cc1 (stereo not given) | 1 | 8 | 13 | 4 | 6 | i | -64 | -1
Cc1ccc(OCCNC(=O)c2cc(=O)[nH]c3ccccc23)cc1 | nt | -10 | 0 | 1 | -1 | i | 20 | 1
CN1C2C=C3C(C#N)=C(N)C(C#N)(C#N)[C@@H](c4cccc(F)c4)[C@@H]3C1CC2 (stereo not given in full) | -6 | 26 | -8 | 0 | 15 | i | nt | 18
